# Source: PubChem BioAssay (several laboratories)
# Mtb hypoxia inh = PubChem AID 1159583; hit rate 0.1% among 300,000; M. tuberculosis hypoxia-regulated fluorescent reporter, fluorescence; fluorescence inhibition, % (no concentration beside the values);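 active = 35 to 45% if threefold the growth effect, above 45% if 1.5-fold the growth effect; inactive = the rest, general growth blockers included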;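 note: wells of about 50 µL received 100 nL stock; 0% = vehicle wells and 100% = reference inhibitor wells; whole bacteria with a GFP reporter of the hypoxia response; strong numbers were not always called active; many hits fall short of the cut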
# BJeLR lethal = MLPCN primary cell-based screen for lethality selective to Ras in HRASV12 cells | AID 1554, 2009 | BJeLR (HRASV12) viability, CellTiter-Glo ATP luminescence, 48 h; reference of the scale not given here | hit rate 0.17% among 300,000 | inhibition, % (concentration not given with the values);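 active = replicate mean above 50%; inconclusive = above 50% but judged a plate artefact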;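 note: 50 nL library stock added to about 25 µL; numbers are from one replicate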
# Sa RN4220 lethal = growth inhibition of S. aureus RN4220, primary screen, OD600. 16 h. inhibition, % (no concentration beside the values). hit rate 0.33% among 330,000;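 active = z-score of -3 or lower and OD600 up to 0.18 on both plates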;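 note: plate controls were untreated cells for no effect and reference antibiotic for full effect; stock transfer was 100 nL into about 80 µL; one replicate is shown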
# Bead autofluor = flagged as autofluorescent in microsphere protease counterscreen; compound autofluorescence counterscreen, microsphere flow cytometry; stronger effect = higher value; fluorescence intensity (concentration not given with the values); hit rate 3.1% among 360,000; AID 624483;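 active = at least 3 SD above the mean of all compounds, about 16000 in these data; inconclusive = too few beads counted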;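 note: 100 nL of 1 mM stock went into each well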
# PrP UTR inh = inhibition of PrP 5' UTR reporter expression; cell-based PrP 5' UTR mRNA reporter, plate reader; inhibition, % (test concentration not listed); hit rate 0.35% among 340,000;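 active = every replicate at 50% or more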;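 note: 0 = median of the neutral control wells; tested in H4 reporter cells; numbers are from one replicate; inactives centre near -14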
# Sa ugtP lethal = growth inhibition of ugtP-null S. aureus, primary screen, RN4220 ugtP deletion, OD600 | 16 h; some inactives read as strong as hits | hit rate 0.54% among 330,000 | growth inhibition, % (concentration not given with the values);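 active = z-score under -3 and OD600 up to 0.15 on both plates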;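 note: plate controls were untreated wells for no effect and antibiotic for full effect; wells of about 80 µL received 100 nL stock; the first replicate is given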
# Mtb hypoxia inh growth = second read-out of Mtb hypoxia inh, no call of its own (marks repeat the call); growth inhibition, %; measured here: M. tuberculosis growth (absorbance);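 0% = vehicle and 100% = reference antibiotic; read after six days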
# The depositor's hits bear a star; ? = inconclusive; . = no result given.
SMILES,Mtb hypoxia inh,Mtb hypoxia inh growth,BJeLR lethal,Sa RN4220 lethal,Bead autofluor,PrP UTR inh,Sa ugtP lethal
Cc1c(Cl)cccc1NC(=O)CCCCCN1C(=O)CCC1=O,.,.,0,5.6,4590,-5,9
Cc1ccc(CCN2C(=O)CCC2(C)C(=O)NC2CCCC2)cc1 (stereo not drawn),0,2,.,10,4259,-1,-8
N#Cc1c(-c2ccc(Cl)cc2)ccn2nc(C3CCCCC3)nc12,.,.,2,2.0,5109,-57,10
Cc1ccccc1C(=O)NC1CCN(CC(=O)Nc2nccs2)CC1,1,6,-7,4.5,20345*,-15,3
CN(C)c1ccc(C=C2C(=O)NC(=O)NC2=O)cc1[N+](=O)[O-],12,2,2,5.9,4085,-19,6
Cc1cc(CN(C)C(=O)c2ccc3nc(Cc4ccccc4F)oc3c2)n[nH]1,7,5,2,1.9,6447,-8,5
CCOP(=S)(OCC)Oc1nc(Cl)c(Cl)cc1Cl,9,2,.,1.4,5008,-16,10
Fc1ccc(Nc2nc3ccccc3s2)cc1,7,5,1,-1.5,4684,-76,-2
CCN(CC)c1ccc(NS(=O)(=O)c2ccc3c(c2)oc(=O)n3C)c(C)c1,2,8,0,2.9,5653,-11,-8
O=C(CSc1nc2c(cnn2-c2ccccc2)c(=O)[nH]1)N1CCOCC1,17,13,1,-0.5,4721,-26,8
CC(=O)c1ccc(N2CCN(C(=S)Nc3ccccc3C(F)(F)F)CC2)cc1,17,9,6,2.4,5612,-13,13
O=C(/C=C/c1cccc(Cl)c1)Nc1ncccn1,10,4,3,8.1,3213,-45,-1
c1ccc(N2CCN(Cc3cnc(N4CCOCC4)s3)CC2)cc1,0,14,-5,0.7,4407,-1,-5
CC(C)NC(=O)c1n[nH]c(=O)c2ccccc12,.,.,-2,3.6,3544,-10,8
Cc1ccc(CNS(=O)(=O)c2cc3c(cc2C)N(C)CCO3)cc1,10,10,5,-3.3,5228,-20,3
O=C(Cc1cccs1)NCc1cccc(Br)c1,7,2,0,1.0,3125,-41,7
CCNc1nc(NCC)nc(N/N=C(\C)c2ccc(OC)cc2)n1,.,.,15,.,3072,-21,.
COC(=O)c1cc(C(=O)OC)cc(N2C(=O)CC(Sc3nc(C)cc(C)n3)C2=O)c1 (stereo not drawn),0,8,-2,-3.1,3138,-10,-7
CN(C)CCCn1c(SCC(=O)N2c3ccccc3Sc3ccccc32)nc2ccccc2c1=O,7,13,-11,-4.4,1937,-9,-15
Nc1nc(CN2CCN(c3ccc(F)cc3)CC2)nc(N2CCCc3ccccc32)n1,-11,12,-13,1.8,7245,-15,-4

# An excerpt from above in order of heavy-atom count, lowest first.
SMILES,Mtb hypoxia inh,Mtb hypoxia inh growth,BJeLR lethal,Sa RN4220 lethal,Bead autofluor,PrP UTR inh,Sa ugtP lethal
Fc1ccc(Nc2nc3ccccc3s2)cc1,7,5,1,-1.5,4684,-76,-2
O=C(/C=C/c1cccc(Cl)c1)Nc1ncccn1,10,4,3,8.1,3213,-45,-1
CN(C)c1ccc(C=C2C(=O)NC(=O)NC2=O)cc1[N+](=O)[O-],12,2,2,5.9,4085,-19,6
Cc1c(Cl)cccc1NC(=O)CCCCCN1C(=O)CCC1=O,.,.,0,5.6,4590,-5,9
N#Cc1c(-c2ccc(Cl)cc2)ccn2nc(C3CCCCC3)nc12,.,.,2,2.0,5109,-57,10
Cc1ccccc1C(=O)NC1CCN(CC(=O)Nc2nccs2)CC1,1,6,-7,4.5,20345*,-15,3
O=C(CSc1nc2c(cnn2-c2ccccc2)c(=O)[nH]1)N1CCOCC1,17,13,1,-0.5,4721,-26,8
CCN(CC)c1ccc(NS(=O)(=O)c2ccc3c(c2)oc(=O)n3C)c(C)c1,2,8,0,2.9,5653,-11,-8
CC(=O)c1ccc(N2CCN(C(=S)Nc3ccccc3C(F)(F)F)CC2)cc1,17,9,6,2.4,5612,-13,13
COC(=O)c1cc(C(=O)OC)cc(N2C(=O)CC(Sc3nc(C)cc(C)n3)C2=O)c1 (stereo not drawn),0,8,-2,-3.1,3138,-10,-7
Nc1nc(CN2CCN(c3ccc(F)cc3)CC2)nc(N2CCCc3ccccc32)n1,-11,12,-13,1.8,7245,-15,-4
CN(C)CCCn1c(SCC(=O)N2c3ccccc3Sc3ccccc32)nc2ccccc2c1=O,7,13,-11,-4.4,1937,-9,-15

# Further structures follow.
SMILES,Mtb hypoxia inh,Mtb hypoxia inh growth,BJeLR lethal,Sa RN4220 lethal,Bead autofluor,PrP UTR inh,Sa ugtP lethal
CN1C2CCC1CC(OC(c1ccccc1)c1ccccc1N)C2 (stereo not drawn),4,11,7,2.3,6856,-6,-3
Cc1[nH][nH]c(=O)c1C(c1ccc(-c2ccc(C(=O)O)cc2)o1)c1c(C)[nH][nH]c1=O,9,8,.,5.5,3861,-46,-2
COc1ccc(C(=O)N/C(=C\c2ccco2)C(=O)NCCCn2ccnc2)cc1,-4,-3,5,4.2,10571,-19,0
O=C(NN=Cc1ccco1)c1cc(-c2cccs2)[nH]n1,16,9,.,-0.2,.,.,-4
CC(=O)Nc1ccc(NC(=O)C(C)Sc2nc3nc(C)cc(C)n3n2)cc1 (stereo not drawn),8,7,-5,1.3,5833,-25,4
CC(C)(C)c1cccc(C2(O)C(=O)c3ccccc3C2=O)c1O,8,15,3,9.3,4450,-8,-15
CC(=NNc1cccc(Cl)c1)c1ccncc1,1,0,.,-1.7,.,.,53
OC1(c2ccccc2)CNCCc2ccccc21 (stereo not drawn),-14,-21,1,0.4,3747,-5,-3
COc1cccc(NC(=O)C2CCCN(S(=O)(=O)c3cccc4nonc34)C2)c1 (stereo not drawn),5,1,-5,4.8,3448,-13,-3
C=C(CO)C1Cc2cc(C(C)=O)ccc2O1 (stereo not drawn),.,.,-2,0.2,4026,-26,-6
O=C(COc1cccnc1[N+](=O)[O-])N1CCc2ccccc2C1,12,5,-22,-3.8,2207,-8,5
O=S(=O)(C/C(=C/CO)S(=O)(=O)c1ccccc1)c1ccccc1,12,14,26,6.9,6978,-40,4
O=C(CN(Cc1ccccc1Cl)C(=O)c1csnn1)NCc1ccc(F)cc1,14,2,-12,2.1,5713,-14,11
CC1CCN(C(=O)CN(CCc2ccccc2)S(C)(=O)=O)CC1,14,7,-17,5.1,10610,-24,5
Cc1cnc(C(=O)OCC(=O)Nc2cccc(Cl)c2)cn1,4,11,-10,3.7,8445,-21,-1
COc1ccc(/C=C/C(=O)N2CCCC2)cc1OC,16,13,2,4.2,3449,-10,4
COc1ccccc1NC(=S)NCc1cccnc1,19,1,3,4.8,2158,-10,0
COc1ccc(C2C=C(C34CC5CC(CC(C5)C3)C4)NC(=S)N2)cc1 (stereo not drawn),-1,3,0,3.6,2024,-14,3
c1ccc(C2(CN3CCNC[C@H]3Cc3cccc4ccccc34)CC2)cc1,.,.,9,.,4222,-9,.
CC(C)(C)c1cc[n+](CC(=O)Nc2cc(C(F)(F)F)ccc2N2CCOCC2)cc1,10,12,-1,-1.6,4082,-16,0
COC(=O)c1ccc(C2NC(=O)NC(C)=C2C(=O)N(C)C)cc1 (stereo not drawn),1,8,6,-6.8,3036,-6,-9
CCN(C(=O)COC(=O)c1ccc(=O)n(Cc2ccccc2)n1)C1CCS(=O)(=O)C1 (stereo not drawn),-2,5,.,-0.2,5658,-11,-4
COc1ccc(OC)c(C=NNC(=O)CC2C(=O)NN=C2C)c1 (stereo not drawn),17,7,.,4.0,.,.,6
Cc1ccc(S(=O)(=O)N2CCCC2CNC(=O)C(=O)Nc2ccc(F)cc2F)cc1 (stereo not drawn),6,11,-5,2.5,?,-29,6
N#Cc1ccccc1NC(=O)c1ccc2c(c1)OCO2,.,.,-2,.,3489,-27,.
Oc1ccc(C[C@H]2CNCCN2CC2CCCCC2)cc1,.,.,12,.,3678,-20,.
COc1cc(C=NN2CCN(c3ccccc3OC)CC2)ccc1O,-7,-1,.,1.9,.,.,1
Cc1nnc(NC(=O)CN2CCN(Cc3ccccc3)CC2)s1,3,7,2,4.1,3831,-16,6
CC1(C)CC(=O)c2sc(NC(=O)C(C)(C)C)nc2C1,3,4,7,6.8,3299,-45,1
COCCN1CCc2[nH]c(=S)[nH]c(=O)c2C1,-1,7,6,5.1,2696,-20,6
CCOC(=O)c1c(NC(=O)CN2C(=O)NC(C)(c3ccc(Cl)cc3)C2=O)sc(C(=O)NC)c1C (stereo not drawn),-3,5,2,-2.1,2605,-2,-9
Cc1sc2ncnc(N3CCC(C(=O)NNC(=O)COc4cccc(C(F)(F)F)c4)CC3)c2c1C,6,-1,-14,-1.2,?,-12,-2
Cc1cccc(C(=O)Oc2ccccc2-c2nnco2)c1,-2,1,-13,17,2411,-11,14
Cc1c(NC(=O)/C(=C\c2ccccc2)NC(=O)c2ccccc2)c(=O)n(-c2ccccc2)n1C,2,-1,-7,-1.4,6728,-11,-1
O=C(CSCC(=O)OCn1nnc2ccccc2c1=O)Nc1ccc(Cl)cc1,8,7,4,6.7,9403,-3,3
Cc1ccc(C(C2=C(O)CC(C)(C)CC2=O)C2C(=O)CC(C)(C)CC2=O)s1 (stereo not drawn),8,-1,-6,2.1,2980,-2,4
COc1cccc2c(SCC(=O)N/N=C/c3ccc(O)cc3O)cc(C)nc12,.,.,8,.,3648,-13,.
CSCC(=O)Nc1ccc(F)c(Cl)c1,1,-3,1,1.3,5099,-10,-8
Cc1cc(C)n2nc(C(=O)NNC(=O)c3ccc(Cl)cc3)nc2n1,3,0,5,3.0,4678,-30,7
CC(C)CC(=O)Nc1ccc(Oc2ccc(NC(=O)CC(C)C)cc2)cc1,5,6,-20,3.5,3954,-6,-2
O=C(NNc1ccccc1F)c1ccccc1,2,1,9,2.7,.,-2,-2
COc1cc(/C=C2\SC(=Nc3c(C)n(C)n(-c4ccccc4)c3=O)NC2=O)ccc1O,-5,7,.,4.5,2488,-6,0
Cc1ccnc(NC(=O)c2ccc(Cl)s2)c1,1,-1,-21,2.5,5143,-120,1
COc1ccccc1N1CCN(C(=O)c2ccc(Br)s2)CC1,13,22,-8,9.9,10416,-31,2
Cc1cccc(CN2CCN(CC(=O)NCCCN3CCN(c4ccc(F)cc4)CC3)C2=O)c1,5,8,5,1.6,13407,.,1
O=C(N/N=C/c1ccc(Cl)cc1)Nc1ccccc1,.,.,6,.,3367,-63,.
O=C(c1ccc(N2CCCCC2)c([N+](=O)[O-])c1)N1CCC2(CC1)OCCO2,3,0,-3,5.6,3825,-12,2
COc1ccc(C(=O)N/N=C/c2sc(N3CCOCC3)nc2-c2ccccc2)cc1OC,.,.,-2,.,4253,-6,.
COC(=O)C1=C(C)N(C)C(C)=C(C(=O)OC)C1c1ccc(Cl)cc1,.,.,2,0.9,4516,1,15
O=C(/C=C/c1cccs1)Nc1ccc(N2CCOCC2)c(S(=O)(=O)Nc2cc(Cl)ccc2Cl)c1,-3,4,7,2.9,7160,8,-24
S=c1nc(-c2ccccc2)n(-c2ccccc2)[nH]1,8,6,7,3.1,3946,.,20
O=C(NN=Cc1cc([N+](=O)[O-])cc([N+](=O)[O-])c1O)/C(=C\c1cccs1)NC(=O)c1ccccc1,9,3,.,4.2,.,.,-3
O=C1CN(C(=O)c2ccccc2F)C(c2ccc(F)cc2)c2cc(F)ccc2N1 (stereo not drawn),6,-6,-2,1.7,5419,-8,1
CC(C)(C)C1CCC(=NNC(=O)c2ccco2)CC1 (stereo not drawn),6,-1,-4,3.1,5473,-9,0
CC(=NNc1nc2ccccc2c(=O)n1O)c1ccco1,-4,7,.,0.3,.,.,-4

# Entries of single compounds from above. Order of values: Mtb hypoxia inh | Mtb hypoxia inh growth | BJeLR lethal | Sa RN4220 lethal | Bead autofluor | PrP UTR inh | Sa ugtP lethal
# N#Cc1c(-c2ccc(Cl)cc2)ccn2nc(C3CCCCC3)nc12 as listed: . | . | 2 | 2.0 | 5109 | -57 | 10
# CCOP(=S)(OCC)Oc1nc(Cl)c(Cl)cc1Cl as listed: 9 | 2 | . | 1.4 | 5008 | -16 | 10
# O=C(NN=Cc1cc([N+](=O)[O-])cc([N+](=O)[O-])c1O)/C(=C\c1cccs1)NC(=O)c1ccccc1 as listed: 9 | 3 | . | 4.2 | . | . | -3
